# Assay outcomes (PubChem BioAssay)
# Prx2 Sm inh: inhibitors of Schistosoma mansoni peroxiredoxin 2. AID 448. 65,000 compounds, 0.07% hits. S. mansoni Prx2 activity coupled to TGR/GSH (TGR is thioredoxin glutathione reductase), NADPH fluorescence loss, qHTS; some inactives read as strong as hits. Potency, µM; active means full or partial inhibition curve with a strong effect at the top dose; inconclusive means weaker partial or single-point curve; inactive means no accepted curve; also: series up to 57 µM; many of its hits are not listed in these tables
#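 qHTS, coupled TGR/Prx2 format; 15 min compound preincubation at RT; reaction started with H2O2 (2.5 mM aliquot); kinetic NADPH fluorescence decrease, ex 365/em 450 nm.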
# Anthrax LT inh: blocks cellular internalization of anthrax lethal toxin; Cells, anthrax lethal toxin internalization, FRET ratio (460/530); Potency, µM (highest dose often 40 µM), without a hit: top-dose activity change, negative = inhibition, usual class: inhibitors; 70,000 compounds, 0.67% hits; AID 912; active = well fitted falling ratio curve with the 530 nm signal flat; inconclusive = other ratio curves, or a change in one channel alone; inactive = flat curves in the ratio and both channels; the % refers to the ratio; also: % is scaled to controls: 0 for no effect and ±100 for the full control effect; nearly all actives have a fitted effect of over 50% in size; tested in ME-180 cells; beta-lactamase reporter
# An asterisk follows results filed as active; ? = inconclusive; . = no result given; [ ] = dose if it differs, or a comment. Potency is read from the fitted curve at half-maximal effect.
SMILES,Prx2 Sm inh,Anthrax LT inh
O=C(NCCCN1CCOCC1)c1ccc(S(=O)(=O)N2CCOCC2)cc1,.,15%
CCC(=O)Nc1ccc(C(=O)CSc2nnc(CNc3ccc(Cl)cc3)o2)cc1OC,>57,-12%
O=C(COc1ccc(Cl)cc1)N1CCN(Cc2ccc3c(c2)OCO3)CC1,>57,-1%[3.58 µM]
O=C(COc1ncnc2c(Cl)cc(Cl)cc12)N1CCCCC1,>57,-3%
CCOC(=O)C1CCCN(c2c(NCCCN(CC)c3ccccc3)c(=O)c2=O)C1 (configuration not stated),>57,?
COc1ccc(NC(=O)N2CC3(CCN(C(C)=O)CC3)C2)cc1,>57,-27%
CCOC(=O)C1CCCN(c2c(NCCCN(C)Cc3ccccc3)c(=O)c2=O)C1 (configuration not stated),>57,-11%
CC1=c2c(oc3cc(O)c(Nc4c(C)cc(O)cc4O)c(C)c23)=CC(=O)C1=Nc1c(C)cc(O)cc1O,>57,-6%[8 µM]
O=C(OCCCN1CCCCC1)c1ccc(O)cc1,>57,0%
Cc1nn(C)c(N)c1C(O)(c1nccn1C)C(F)(F)F (configuration not stated),>57,-3%
CCCC(C(=O)NC1CCCC1)N(CC1CCCO1)C(=O)c1snc(C(N)=O)c1N (configuration not stated),>57,-5%
O=C(Nc1sccc1C(=O)N1CCOCC1)c1cccnc1,>57,-5%
COCCN1C(=O)C(O)=C(C(C)=O)C1c1ccc(F)cc1 (configuration not stated),>57,-25%
CCCN1C2CCCC1CC(NC(=O)c1ccccc1OCC)C2 (configuration not stated),>57,-3%
O=C(CCn1nc(-c2ccccc2)c2ccccc2c1=O)NCC1CCCO1 (configuration not stated),>57,-4%
COc1cc2c(cc1OC)C1Cc3ccc(OC)c(OC)c3CN1CC2 (configuration not stated),>57,?
Cn1c(SCC(=O)NCC2CCCO2)nc2c([nH]c3ccccc32)c1=O (configuration not stated),>57,14%
CNC(C)(C)Cc1ccccc1,>57,-7%[3.58 µM]
CCOC(=O)NC(Nc1cc(C)ccn1)(C(F)(F)F)C(F)(F)F,>57,-12%
Cc1cc(-c2nnc(SCc3cccnc3)o2)no1,>57,6%
Cc1ccc(NC(=O)NC2CCN(CC(=O)Nc3nccs3)CC2)cc1,>57,-7%
Cc1ccc(O)c(C(=O)CC(=O)c2cccc(F)c2)c1,.,?
O=C(O)CCC1=C2c3ccccc3CCN2C(=O)CC1,>57,-2%
CCOC(=O)C1=C(C)NC(=O)NC1c1ccoc1 (configuration not stated),>57,-27%
CCOc1ccc(S(=O)(=O)n2c(C)nc3ccccc32)cc1,>57,-20%

# An excerpt from above in order of length of the SMILES, high to low.
SMILES,Prx2 Sm inh,Anthrax LT inh
CC1=c2c(oc3cc(O)c(Nc4c(C)cc(O)cc4O)c(C)c23)=CC(=O)C1=Nc1c(C)cc(O)cc1O,>57,-6%[8 µM]
CCOC(=O)C1CCCN(c2c(NCCCN(CC)c3ccccc3)c(=O)c2=O)C1 (configuration not stated),>57,?
O=C(CCn1nc(-c2ccccc2)c2ccccc2c1=O)NCC1CCCO1 (configuration not stated),>57,-4%
Cc1nn(C)c(N)c1C(O)(c1nccn1C)C(F)(F)F (configuration not stated),>57,-3%
O=C(Nc1sccc1C(=O)N1CCOCC1)c1cccnc1,>57,-5%
O=C(OCCCN1CCCCC1)c1ccc(O)cc1,>57,0%
CNC(C)(C)Cc1ccccc1,>57,-7%[3.58 µM]

# Next section:
SMILES,Prx2 Sm inh,Anthrax LT inh
CN(c1ccccc1C(=O)N1CCCC1)S(C)(=O)=O,>57,10%
Cc1sc2ncnc(NCCCn3ccnc3)c2c1C,>57,9%
CCCCCC[C@@H]([C@H](C)O)n1cnc2c(N)ncnc21,>57,-8%
O=c1[nH]c(SCc2ccc(Cl)cc2)nc2c1CCC2,>57,-3%
COc1cccc(C2=NOC(C(=O)NCC3CCCO3)C2)c1 (configuration not stated),>57,-5%
COc1ccc(C(=O)CCC(=O)N2CCN(c3ccc(N4CCOCC4)nn3)CC2)cc1,>57,5%
CCCn1c(C)nc2c(N(CCN(C)C)Cc3ccccc3)nc(C)nc21,.,-8%
CCCCOc1ccccc1C1C(C(=O)OC)=CN(CC)C=C1C(=O)OC,.,?
CC1CCN(c2ccc(C(=O)NCCc3ccccc3)cn2)CC1,>57,0%
CCOc1ccc(C(=O)N2CCN(c3cccc(C)c3C)CC2)cc1,>57,-23%
O=S(=O)(c1ccc(Cl)cc1)N1CN2CCN(C2)C1,>57,5%
Cc1ccc(-c2nnc3ccc(SCC(=O)NCc4ccco4)nn23)cc1,>57,?
COc1ccc(CN2CCN(c3ccccn3)CC2)c(OC)c1,.,-13%
O=C(NC1CCCCC1)c1ccc2c(=O)n(CC3CCCO3)c(=O)[nH]c2c1 (configuration not stated),>57,6%
CCOc1ccccc1Nc1cc(C)nc2nc(C)nn12,>57,-12%
Cc1c(C(=O)N2CCOCC2)oc2c1C(=O)CC(C)(C)C2,>57,0%
Nc1nc(NCc2ccccc2)nc(-c2ccccc2)n1,>57,-3%
Cc1ccccc1-c1nnc(-c2ccc(Cl)cc2)o1,.,-6%
CCOC(=O)N1CCN(C(=O)c2ccc(N3C(=O)c4ccccc4C3=O)cc2)CC1,>57,8%
Cc1nc2nc(-c3cccnc3)[nH]n2c(=O)c1Cc1ccccc1,>57,.
C=CCSc1nnc(Cn2c(=O)sc3ccccc32)n1C,>57,3%
CC(C)[C@@H](CC(=O)N[C@@H]1CCCC[C@H]1C(=O)N[C@H](CC(=O)N[C@@H](CCC(=O)O)CC(=O)O)Cc1c[nH]c2ccccc12)NC(=O)C[C@H](CO)NC(=O)[C@@H]1CNCC[C@H]1N,>57,8%
COc1ccc2c(c1OC)C(=O)OC2Nc1ccccc1S(=O)(=O)C(F)F (configuration not stated),>57,?
CN(C)C(CNC(=O)NC1CCCCC1)c1cccnc1 (configuration not stated),>57,5%
CCCOc1ccccc1NC(=O)c1ccc(N)cc1,>57,-2%

# One compound at a time, as listed above. Values in the order: Prx2 Sm inh	Anthrax LT inh
# `COc1ccc(CN2CCN(c3ccccn3)CC2)c(OC)c1` reads .	-13%
# `CCCCCC[C@@H]([C@H](C)O)n1cnc2c(N)ncnc21` reads >57	-8%
# `COc1ccc2c(c1OC)C(=O)OC2Nc1ccccc1S(=O)(=O)C(F)F` (configuration not stated) reads >57	?

# Next part:
SMILES,Prx2 Sm inh,Anthrax LT inh
COC(=O)CSc1nc(-c2ccccc2)cc(-c2ccco2)c1C#N,>57,?
COc1ccc(NC(=O)N2CCCC3(CCN(C(=O)c4ccco4)CC3)C2)cc1,>57,10%
CCOC(=O)N1CCC(Nc2c(NCCCN(CC)c3cccc(C)c3)c(=O)c2=O)CC1,>57,-18%
CCc1nc(-c2ccc(-c3ccc(OC)cc3)nc2OC)no1,>57,-14%
Oc1cccc2ccc(SSc3ccc4cccc(O)c4n3)nc12,>57,-4%[8 µM]
CC(C)(C)NC(=O)CN(C(=O)CS(=O)CC(=O)Nc1ccc(F)cc1)c1ccc(Cl)cc1 (configuration not stated),>57,?
Cc1ccnc(NC(=O)CCC(=O)N(CC(=O)NCCc2ccccc2)Cc2ccco2)c1,>57,?
O=C(NCc1ccco1)c1ccc2c(=O)n(CCC3=CCCCC3)c(=O)[nH]c2c1,>57,26%
Cc1cc(Oc2ccccc2)nc(OCC#N)n1,>57,-6%
CCOC(=O)Nc1sc(NS(=O)(=O)c2ccccc2)nc1C,.,-5%
CCCCNc1nc2ccccc2n1CC(=O)N1CCc2ccccc2C1,>57,7%
O=C1c2ccccc2NC(c2ccccn2)N1c1ccc(Cl)cc1 (configuration not stated),>57,-19%
CC1CN=C(NCc2ccncc2)S1 (configuration not stated),>57,-2%
CCCCCn1c(N(C)Cc2ccccc2)nc2c1c(=O)[nH]c(=O)n2C,>57,-9%
Cc1noc(C)c1S(=O)(=O)NCCCN1CCN(Cc2ccccc2)CC1,>57,0%
COCCn1c(C23CC4CC(CC(C4)C2)C3)n[nH]c1=S,>57,9%
CN(C)C(=O)Nc1cccc(OC(=O)N(C)C)c1,>57,9%
Cc1c(NCc2nc3ccccc3[nH]2)c(=O)n(-c2ccccc2)n1C,>57,14%
CC(C)=C[C@H]1[C@@H](COC(=O)c2ccccc2Cl)C1(C)C,>57,-12%[8 µM]
Cn1c(CNC(=O)c2ccc(F)cc2)nc2ccccc21,>57,4%
CC(=NCc1ccco1)c1c(O)n(C)c(=O)n(C)c1=O,>57,.
COCc1nnc(NC(=O)CSc2ccc(C)cc2)s1,>57,-5%
CCOC(=O)c1sc(C)c2c(=O)n(CC)nnc12,>57,.
CN(C)Cc1cc(C(C)(C)c2cc(CN(C)C)c(O)c(CN(C)C)c2)cc(CN(C)C)c1O,>57,?
C[C@@H](C(=O)Nc1ccc2ccccc2c1)[C@@H]1C[C@@]1(C)[C@@H](NS(=O)(=O)c1ccccc1)c1ccccc1,>57,?
# Following part.
SMILES,Prx2 Sm inh,Anthrax LT inh
CCN1C(=O)c2cccc3c(S(=O)(=O)NCc4ccco4)ccc1c23,>57,14%
CC(C)NC(=O)CN(C)S(=O)(=O)c1ccc(F)cc1,>57,?
OCc1nc2ccccc2n1CC(O)COc1ccccc1 (configuration not stated),>57,-6%
O=C(CSc1nnc(CNc2ccc(F)cc2)n1Cc1ccco1)N1CCCC1,>57,2%
CCC(c1nnnn1Cc1ccc2c(c1)OCO2)N1CCN(c2ccc(OC)cc2)CC1 (configuration not stated),>57,-6%
COc1ccc(C(=O)N2CCC[C@@]3(CCN(C(=O)NC(C)C)C3)C2)cc1,>57,?
O=C(NCc1ccccn1)c1cc(-c2ccccc2)on1,>57,1%
O=C(Nc1nc(-c2ccccn2)cs1)C1COc2ccccc2O1 (configuration not stated),>57,?
Clc1ccc2oc(-c3ccccn3)nc2c1,>57,-24%
Cc1nc2ccccc2c2c1C(=O)N(C(C)C)C2=O,>57,6%
CC(C)c1ccc(-c2nnn(Cc3nc4ccccc4s3)n2)cc1,>57,?
O=C(Nc1cccnc1)c1ccc(Oc2ccccc2)cc1,>57,.
CCc1nc(SC)[nH]c(=O)c1C,>57,1%
COC(=O)[C@@]1(Cc2ccc(OC)cc2)[C@H]2c3cc(C(=O)N(C)C)n(Cc4ccccn4)c3C[C@H]2CN1C(=O)c1ccccc1,>57,?
CCN(CC)c1ccc(/C=N/n2c(=S)[nH]nc(C)c2=O)cc1,.,-12%
CC1=C(C(=O)OCC2CCCO2)C(c2ccc(C)o2)C2=C(CC(c3ccc(N(C)C)cc3)CC2=O)N1 (configuration not stated),>57,-27%
CSCc1nnc(NC(=O)c2ccc(S(=O)(=O)N(CC(C)C)CC(C)C)cc2)o1,>57,14%
CCn1cc(C(=O)NC2CCCCC2)c(=O)c2cc(S(=O)(=O)N(C)C)ccc21,>57,-9%
CCCCN(C(=O)c1ccco1)c1nnc(-c2cc(OC)c(OC)c(OC)c2)s1,>57,-7%
COc1ccc(-c2nc3cnc(Nc4cccc(OC)c4)nc3n(C)c2=O)cc1,>57,?
O=C1CCCc2c1nn(-c1ccccc1)[n+]2[O-],>57,2%
CSCCC(NC(=O)c1ccccc1)c1nc(-c2ccccc2)no1 (configuration not stated),>57,26%
CC(=O)NC(C)C(=O)OCc1ccc(Cl)cc1Cl (configuration not stated),>57,-6%
O=C(Nc1cccc(F)c1)N1CCC2(CC1)CCN(S(=O)(=O)c1ccccc1)CC2,>57,?
CN(C)/C=C/c1c(C#N)c(=O)ncn1Cc1ccccc1,>57,4%
# Next entries follow.
SMILES,Prx2 Sm inh,Anthrax LT inh
C=C(C)[C@H]1CC[C@]2(C(=O)O)CC[C@]3(C)[C@@H](CC[C@H]4[C@@]5(C)CC[C@@H](O)C(C)(C)[C@@H]5CC[C@@]43C)[C@H]12,>57,-15%[3.58 µM]
Nc1ccccc1N,.,-3%
CCCc1cc(C(=O)Cc2ccc(C(=O)OCC)o2)c(O)cc1O,?,?
O=C1NCCCC1C(=O)Nc1ccccn1 (configuration not stated),>57,-7%
COc1ccccc1-n1nc(C(=O)NCc2ccco2)c2ccccc2c1=O,>57,?
O=c1c2ccccc2nc2n1CCN2,.,1%
O=C(NCCN1CCCC1)c1ccc2c(=O)n(CCc3ccccc3)c(=O)[nH]c2c1,>57,-25%
Cc1ccc(OCC(=O)N2CCCCCC2)c(C)c1,>57,0%
CCOC(=O)c1cnc2nc(COc3ccccc3)[nH]n2c1=O,>57,14%
C[C@H]1CC[C@@H]2[C@@H](C)C(=O)O[C@H]3O[C@@]4(C)CC[C@@H]1[C@]32OO4,>57,?
COC(=O)C1=C(C)NC(=O)NC1c1ccccc1 (configuration not stated),>57,5%
Cc1cc(C)c2nc(-c3ccccn3)cc(C(=O)NCc3ccco3)c2c1,>57,-12%
Cn1c(C(=O)O)c(CC(=O)Nc2ccc(F)cc2F)c2ccccc21,>57,26%
FC(F)(F)c1cnc(Nc2ccc(N3CCOCC3)cc2)c(Cl)c1,>57,-18%
O=c1c(-c2cc(F)cc(F)c2)nc2cnc(N3CCNCC3)nc2n1C1CC1,>57,?
Cc1cc(C)n2c(SCC(=O)Nc3ccccc3)nnc2n1,>57,-4%
COc1cccc(S(=O)(=O)N2CCN(c3ccccc3F)CC2)c1,>57,-28%
CCNC(=O)C1CC(=O)N(Cc2ccc3c(c2)OCO3)C(=Nc2ccc(F)cc2)S1 (configuration not stated),>57,0%
O=C(Nc1ccc(C(=O)Oc2ccccc2)c(O)c1)c1ccco1,>57,?
O=C1c2ccccc2-c2cc([N+](=O)[O-])c([N+](=O)[O-])cc21,.,?
CCN(CC)CCN1C(=O)C(=O)/C(=C(/O)c2cccc(OC)c2)C1c1ccccn1 (configuration not stated),.,3%
COc1ncc2nc(-c3ccc(Cl)cc3)c(=O)n(Cc3cccs3)c2n1,>57,?

# Not all compounds are listed; rates above refer to the full screens.
